# AID504770: growth inhibitors of E. coli YBA685 in a screen for V. cholerae RctB (chromosome II replication) inhibitors. E. coli YBA685 rctB-dependent plasmid, OD600 growth, 3 h; stronger effect = lower value. z-score (test concentration not listed). actives 0.27% (n = 130,000). AID 504770;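 active = z-score under -2 on both plates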;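 note: wells of about 30 µL received 100 nL stock; score is relative to mean and SD of the test wells; the first replicate is given; strong numbers were not always called active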
# CapD inh: inhibitors of Bacillus anthracis CapD enzyme; purified CapD enzyme, fluorescence intensity read-out; stronger effect = lower value; some hits fall short of the stated cut; z-score (no concentration beside the values); actives 0.23% (n = 140,000);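 active = z-score under -4 in either of two replicates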;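 note: stock transfer was 100 nL into about 40 µL; score is relative to mean and spread of the plate; one replicate is shown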
# Starred values were filed as active, the others as inactive; . = no result given; & = joins results of further samples.
SMILES,AID504770,CapD inh
COc1ccc(Cl)cc1NC(=O)c1cc(S(=O)(=O)N2CCN(c3ccccc3Cl)CC2)ccc1F,.,-0.185
COC(=O)CS(=O)(=O)c1cc(Br)cc2c1N(C(C)=O)CC2,1.2,.
COc1cc(C(F)(F)F)cc(C(F)(F)F)c1C(=O)NCc1cccs1,-0.6,-0.12
COc1ccc(-n2cnc3c(cnn3CCC#N)c2=N)cc1,-0.25,.
CCOC(=O)NC(=S)NCCc1ccccn1,.,-0.3
CCc1nc(Cc2nc3ccccc3[nH]2)no1,-1.05,.
Cc1cc(C)c(SCC(=O)NCc2ccc3c(c2)OCO3)c(C)c1,1.5,0.525
CC1(C)CC(=O)C2=C(C1)Nc1ccccc1NC2c1ccccc1 (configuration not stated),0.55&-1.05,-2.07&-2.25
FC(F)(F)c1cccc(-c2cnc(SCc3ccc(Cl)cc3)nc2)c1,.,-0.255
COc1ccc(CC(=O)NCC2(c3ccccc3)CCOCC2)cc1,.,-0.225
CC(C)C(=O)N1CCCCCC1,2.4,-0.145
C/C(=N\O)c1ccccc1O,-1.15,-0.365
O=C1c2cccc3cccc(c23)C(=O)N1CC1CCN(C(=O)C2(S(=O)(=O)c3ccccc3)CC2)CC1,.,12.6
COc1ccc(NC2=CC(=O)CCC2)c(OC)c1,-0.55,-0.725
CC(C)c1ccc(Cc2nnc(NN3CCOCC3)[nH]c2=O)cc1,-1.1,.
CC(C)(C)c1ccc(Cn2c3ccc(F)cc3c3nc4ccccc4nc32)cc1,.,2.16
Cc1ccc(-c2nc3ccccc3s2)cc1,3.25,-0.435
COc1ccc(NS(=O)(=O)c2ccc3oc(SCC(=O)N4CCc5ccccc5C4)nc3c2)cc1,1.4,.
O=C1CC(c2ccco2)CC(O)=C1C=NC1CCCCC1N=CC1=C(O)CC(c2ccco2)CC1=O (configuration not stated),-0.2,.
c1ccc2c3c([nH]c2c1)CCCCCCCCCC3,.,-0.495
COc1cccc(NC(=O)CSc2nncn2N)c1,-0.65,.
S=C(S)N1CCCC1,-3.45*,.
COc1ccc(/C=N/NC(=O)c2csc(CS(=O)(=O)Cc3ccco3)n2)cc1,.,-1.41
COc1ccc(C(=O)N=Nc2c(O)n(CN3CCN(C)CC3)c3ccccc23)cc1OC,0.75,-0.02
N#Cc1cccn1-c1ncc(C(F)(F)F)cc1Cl,0.45,-0.49
Cc1ccc(NS(C)(=O)=O)cc1NC(=S)Nc1ccc(F)cc1,.,-0.3
Cc1ccc2nc[nH]c(=O)c2c1,.,0.09
Cc1cccc(N2CCN(C(=O)N(C)C)CC2)c1C,4.1,-1.52
Cc1cc(COC(=O)c2ccccc2Sc2ccccc2C#N)no1,-1,.
CCOC(=O)CC1=C(C(=O)OCC)C(c2ccc(OC)cc2)C(C#N)=C(N)O1 (configuration not stated),.,1.75
Cc1ccc(Cl)cc1N1CCN(C(=O)C2CCCN(S(=O)(=O)c3cccc4nonc34)C2)CC1 (configuration not stated),0.7,0.105
CCOc1nc2ccc(C)cc2c(=O)o1,-1.25,4.94
Cc1cc(N2CCC3CCCC(C2)N3Cc2ccccc2)n2c(n1)nc1ccccc12 (configuration not stated),-0.35,.
COc1ccc(OC)c(-n2c(=S)[nH]c3cc(C(=O)Nc4ccc(OC)c(OC)c4)ccc3c2=O)c1,.,-1.08
CC(=O)Oc1ccc(C2(C)CC(C)(C)NC(=S)N2C)c(OC(C)=O)c1 (configuration not stated),.,4.83
CCn1c2ccccc2c2cc(CN(CCOC(=O)N3CCN(Cc4cc5ccccc5o4)CC3)C(=O)OC(C)(C)C)ccc21,.,19.4

# In the list so far, two contain a tert-butyl group.
SMILES,AID504770,CapD inh
CC(C)(C)c1ccc(Cn2c3ccc(F)cc3c3nc4ccccc4nc32)cc1,.,2.16
CCn1c2ccccc2c2cc(CN(CCOC(=O)N3CCN(Cc4cc5ccccc5o4)CC3)C(=O)OC(C)(C)C)ccc21,.,19.4

# Continued.
SMILES,AID504770,CapD inh
COc1ccc(C2=NN(C(=O)CSc3nnc(CNC(=O)c4cccs4)n3C)C(c3ccc(C)cc3)C2)cc1 (configuration not stated),.,-0.045
Nc1c(Cl)cc(Cl)cc1C(=O)NO,1.3,15.4
CCOc1cc(C(=O)N(CC)Cc2ccncc2)cc(OCC)c1OCC,-0.6,0.985
CCOC(=O)c1[nH]c(C)c(C(=O)OCC(=O)N2CCCCC2C)c1C (configuration not stated),-0.15,.
[O-][n+]1onc2c(-c3ccccc3)nnc(-c3ccccc3)c21,-0.15,0.045
Cc1cc(C)c(C(N)=O)c(SCC(=O)c2ccccc2)n1,0.45,.
N#Cc1c(SCC(=O)c2ccccc2)nsc1SCC(=O)c1ccccc1,.,-0.33
Cn1cc(Br)c(-c2cccc(NC(=O)CSCC(=O)O)c2)n1,2.55,1.21
O=C(Nc1ccc(N=Cc2cccs2)cc1)c1ccccc1O,1.75,-0.495
Cc1csc(=O)n1CC(=O)OCCCn1c(=O)[nH]c2ccccc21,0.35,.
CC(=O)N1C(=S)NC(=O)/C1=C\c1ccc(C(C)C)cc1,1.45,-0.14
Cc1cc2nc(-c3cccnc3Cl)n(Cc3ccc(F)cc3)c2cc1C,.,0.935
O=C(CCC(=O)N1Cc2ccccc2Oc2ncccc21)N1CCCC1,0.05,0.695
O=C(NCCc1ccccc1)C1CCN(C(=O)c2ccco2)CC1,-0.8,-0.035
COC(=O)C(C)N(C(=O)c1c(F)cccc1F)c1c(C)cccc1C (configuration not stated),-0.6,0.205
CC1Cc2cc(C(=O)NC3CCCCC3)ccc2O1 (configuration not stated),-0.2,.
O=C(CNC(=O)c1c(F)cccc1F)NNC(=O)OCC#Cc1ccccc1,.,-0.495
O=C(COc1ncnc2c(Cl)cc(Cl)cc12)NCc1ccc2c(c1)OCO2,1.2,.
Cc1cccc(N2CCN(C(c3cc4cc5c(cc4[nH]c3=O)OCO5)c3nnnn3CC3CCCO3)CC2)c1C (configuration not stated),0.05,.
CCN(CC)c1ccc(C2C(C#N)=C(C)NC3=C2C(=O)CC(c2ccccc2)C3)cc1 (configuration not stated),-0.05,0.475
CN(C)c1ccc(/C=C2/C(=O)NC(=O)N(C3CCCCC3)C2=O)cc1,-0.45,-0.235
CN(Cc1ccccc1)C(=O)Cn1cccc1,0.75,0
CCCCN(Cc1ccco1)C(=O)c1cc2c(=O)[nH]c3ccc(C)cc3c2s1,2.2,4.46
Cc1cc(C)n(CC/C(N)=N/OC(=O)c2ccccc2)n1,-0.85,0.315

# An excerpt from above in order of number of heavy atoms, largest number first.
SMILES,AID504770,CapD inh
O=C(CNC(=O)c1c(F)cccc1F)NNC(=O)OCC#Cc1ccccc1,.,-0.495
O=C(COc1ncnc2c(Cl)cc(Cl)cc12)NCc1ccc2c(c1)OCO2,1.2,.
Cc1cc(C)n(CC/C(N)=N/OC(=O)c2ccccc2)n1,-0.85,0.315
CC1Cc2cc(C(=O)NC3CCCCC3)ccc2O1 (configuration not stated),-0.2,.

# The list goes on:
SMILES,AID504770,CapD inh
N/C(Cn1ccc(C(F)(F)F)n1)=N/O,.,-0.55
CCc1cc(CC)c(/C=N/NC(N)=O)c(CC)c1/C=N/NC(N)=O,-0.25,.
CCCCN(Cc1ccccc1)C(=O)C1CCCN1S(=O)(=O)c1cccc2nsnc12 (configuration not stated),-0.45,-1.43
COc1ccccc1N1CCN(Cc2ccc(Cl)c(Cl)c2)CC1,.,0.51
COc1ccc(N2C(=O)CSC2c2cccc(OC)c2OC)cc1 (configuration not stated),-0.9,2.65
N=C(N)Sc1cn(Cc2ccccc2)c2ccccc12,-1.05,-4.82*
N#CC(C#N)=c1s/c(=C/c2ccc(-c3ccc(S(=O)(=O)N4CCOCC4)cc3)o2)c(=O)n1-c1ccc(F)cc1,1.6,.
c1ccc(-n2c(Sc3cnccn3)nnc2-c2cccs2)cc1,-0.3,.
CC12C(=O)N(c3cccc(C(=O)O)c3)C(=O)C1C1C=CC2C1 (configuration not stated),0.45,0.44
CCOC(=O)CSc1nnc(CSc2nc3ccccc3s2)n1C,-1,0.69
Cc1cc2nc(-c3ccc4c(c3)OCO4)cc(C(F)(F)F)n2n1,.,3.91
O=C(/C=C(/O)c1cccnc1)C(F)(F)F,-1.1,.

# 4 entries from above, with values under each structure:
# Values run as follows: AID504770 | CapD inh
- N/C(Cn1ccc(C(F)(F)F)n1)=N/O
 : . | -0.55
- CCc1cc(CC)c(/C=N/NC(N)=O)c(CC)c1/C=N/NC(N)=O
 : -0.25 | .
- CCCCN(Cc1ccccc1)C(=O)C1CCCN1S(=O)(=O)c1cccc2nsnc12 (configuration not stated)
 : -0.45 | -1.43
- COc1ccccc1N1CCN(Cc2ccc(Cl)c(Cl)c2)CC1
 : . | 0.51

# Next results:
SMILES,AID504770,CapD inh
CCc1nnc2c3ccccc3nc(N3CCN(c4cccc(C)c4C)CC3)n12,0.35,-1.56
O=S1(=O)CC=C(S(=O)(=O)c2ccc(Cl)cc2)C1,-0.45,0.385
CCOC(=O)Nc1ccc(Cc2ccncc2)cc1,1.1,.
COCc1c(C(=O)OCc2ncc(-c3ccccc3)o2)oc2ccccc12,1.1,.
Cn1c(=O)oc2cc(S(=O)(=O)NCc3cccn3Cc3ccc(Cl)cc3)ccc21,-0.95,0.2
CC(=O)OCc1cnn(-c2ccccc2)n1,-0.45,0.65
CC(=O)NC1CCN(C(=O)OCCc2ccccc2F)C1 (configuration not stated),.,-0.1
CC(C)(C)NC(=O)c1c(N)no[n+]1[O-],-0.2,.
Cc1cc(C)n2nc(N3C(=O)c4ccccc4C3=O)nc2n1,1.25,0.385
Cc1occc1C(=O)Nc1ccc(Oc2ccccc2)cc1,-0.9,.
O=C(O)CCN1CN(CCC(=O)O)c2ccccc21,0.3,-0.705
O=C(O)c1ccc2c(=O)n(Cc3ccc(C(=O)NCCc4ccc(Cl)cc4)cc3)c(=S)[nH]c2c1,.,0.06
C(=N\N1CCCCC1)/c1cn(-c2ccccc2)nc1-c1cccnc1,-0.95,.
Cc1cc(C)c(C#N)c(SCC(=O)c2c(C)[nH]c3ccccc23)n1,-1.5,0.105
c1ccc(C2=C(c3ccccc3)N3CCN=C3S2)cc1,0.95,.
COc1ccc(NC(=O)Cn2c(=O)n(Cc3ccco3)c(=O)c3ccccc32)cc1,0.25,0.235
CC[C@H]1CN2CCc3cc(OC)c(OC)cc3[C@@H]2C[C@@H]1C[C@H]1NCCc2cc(O)c(OC)cc21,.,0.215
COC(=O)CC1(C)OCC2(CC=C(C)CC2)CO1 (configuration not stated),-0.45,-0.125
CCCn1nc(Oc2nc(NCC)nc(NC(C)C)n2)ccc1=O,0.35,0.57
CC1CCC2(OC1)OC1CC3C4CC[C@H]5C[C@@H](O)CC[C@]5(C)C4CC(=O)[C@]3(C)C1C2C (some centres not stated),-0.2,-0.08
O=C(COc1ccc(Cl)cc1)OCC(=O)N1CCCC1,1.25,-0.915
Cc1ccc(C(=O)N2CCn3c(C)ccc3C2C)cc1 (configuration not stated),-0.25,.
COC(=O)c1ccc(O)c(C(=O)OC)c1,-0.15,.
O=C(CSc1ccc(Cl)cc1)NN=C(c1ccccc1)c1ccccc1,.,0.33
O=C1NC2(CCCC2)Cc2ccccc21,-0.7,0.025
CCOc1cc(C2C(C(=O)OC(C)C)=C(C)NC3=C2C(=O)CC(c2ccc(OC)cc2)C3)ccc1O (configuration not stated),.,6.7
O=C(O)[C@@H]1CSC(c2coc3ccccc3c2=O)N1 (some centres not stated),1.55,0.16
Fc1cccc(Cl)c1CSc1nc2nccc(/C=C\c3ccccc3)n2n1,.,0.53
CC(C)Cc1ccc(C(C)C(=O)Nc2nn(C)c3ccccc23)cc1 (configuration not stated),1.6,1.46
O=c1[nH]c(-c2cccnc2)nc2sc3c(c12)CCCC3,0.6,0.555
Cc1ccc(-n2ncc3c(=O)[nH]c(SC(C)C)nc32)cc1,0.5,0.23
Cc1ccc(-c2cc(C(=O)c3nccn3C)c3ccccc3n2)cc1,0.4,1.16
O=C(COc1ccc(Br)cc1)Nc1ccc2c(c1)C(=O)c1ccccc1C2=O,.,-0.425
COc1ccc(C2=CC(=O)C=CC2=O)cc1,1.05,.
Cc1ccc(Sc2ncccc2C(=O)NCC(=O)O)cc1,.,0.195
O=S(=O)(/N=C1\C=C2N(CCO)CCOC2(O)c2ccccc21)c1ccc(F)cc1 (configuration not stated),-0.7,-1.02
CCOC(=O)c1c(C)n(CC)c2ccc(OC)cc12,-1.2,0.08
Cc1nn(-c2ccccc2)c(C)c1/C=N/NC(=O)C(Cc1cnc[nH]1)NC(=O)OC(C)(C)C (configuration not stated),.,1.17
CN(CCO)c1cc(N2CCN(Cc3ccc4c(c3)OCO4)CC2)c2nonc2c1[N+](=O)[O-],.,-0.23
O=C(NC1CCCCCCC1)c1cccs1,1,0.365
O=C(NCc1ccccc1)c1nc2ncccn2n1,1,-0.595
Cn1c(COc2ccccc2Cl)nnc1SCC(=O)N1CCNC1=O,0.05,.
N#Cc1cc2cccc3c2n(c1=O)CCC3,.,11.1
Cc1cc(C)n(-c2ccc(C(=O)N3CCCSC3=Nc3ccccc3)cc2)n1,0.85,.
Cc1ccc(C(=O)COC(=O)C(C)N2C(=O)C3C4C=CC(C4)C3C2=O)cc1 (configuration not stated),0,-0.28
O=C(Nc1ccccc1)N1CCc2sccc2C1c1ccc(C(F)(F)F)cc1 (configuration not stated),0.15,0.675
COC(=O)c1ccc(NC(=O)CN2C(=O)CCC2=O)cc1,-0.15,.
Cc1cc(C)c2c(-n3cccc3)nn(CC#N)c2n1,-0.3,-0.12
O=C1C2C3C=CC(C2C(=O)N1Cc1ccccc1)C1C2C(=O)N(Cc4ccccc4)C(=O)C2C31 (configuration not stated),.,-0.105
CC1(C)Cc2ccccc2C(N)=C1C#N,-0.3,-1.12
CCn1c(C)nc2cc(C(=O)N3N=CCC3(O)C(F)(F)F)ccc21 (configuration not stated),-0.25,.
Cc1ccc(-c2nc(NC(=O)C(C(C)C)N3C(=O)c4ccccc4C3=O)sc2C)cc1 (configuration not stated),2.55,-0.32
CCC(=O)c1cc(OC)c(OC)cc1OC,.,0.025

# Not all compounds are listed; count on the stated rates, not on these rows.
